# CSC inhib – cancer stem cell inhibition; 300,000 tested, 1.1% active; cancer stem cell-like cells viability, luminescence; inhibition, % at 7.5 µM; AID 2717;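 active = mean at 75% or more and at least half the replicates too; tested in HMLE shEcad cells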;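 note: 0% = median of negative and 100% = median of positive control wells; the first replicate is given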
# Rce1 inhib – inhibitors of yeast Ras-converting enzyme; Q03530; yeast membranes, quenched prenylated peptide cleavage fluorescence; calls only; 290,000 tested, 0.27% active;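 active = fall in fluorescence gain of 50% or more versus controls, with final raw signal at or below 3038400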;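 note: plate controls were neutral control wells for no effect and wells lacking membranes for full effect; tested at 10 µM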
# Target sequence (Q03530 whole entry, looked up): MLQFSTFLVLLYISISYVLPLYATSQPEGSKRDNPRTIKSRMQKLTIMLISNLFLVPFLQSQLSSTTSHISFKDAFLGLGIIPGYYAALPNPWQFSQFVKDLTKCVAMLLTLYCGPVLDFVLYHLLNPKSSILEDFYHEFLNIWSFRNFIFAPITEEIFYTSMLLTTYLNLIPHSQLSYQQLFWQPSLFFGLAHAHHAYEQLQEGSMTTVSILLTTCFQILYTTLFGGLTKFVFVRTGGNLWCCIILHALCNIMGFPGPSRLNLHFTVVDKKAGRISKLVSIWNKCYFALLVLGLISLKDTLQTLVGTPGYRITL
# Yeast UUG start – alters start codon recognition fidelity in yeast; S. cerevisiae UUG-firefly luciferase reporter, luminescence/redox ratio; activity score, % at 18.7 µM; 350,000 tested, 0.13% active; AID 602363;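 active = replicate mean at a twofold rise or more, about +100% in these data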;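 note: firefly luciferase made from a UUG start codon reports start codon fidelity; reporter light over untreated wells divided by growth signal over untreated wells; some hits fall short of that in this replicate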
# eIF4H inh – inhibitors of RNA binding by human eIF4H | Q15056 | eIF4H fluorescence polarization binding assay | inhibition, % at 35 µM | 290,000 tested, 0.94% active | AID 2012;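 active = 50% or more with normal probe brightness, or confirmed in later tests; about a fifth of its hits are not listed in these tables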;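 note: calls also rest on retests at 20 µM and on dose response follow-up; 0% = protein and probe with vehicle and 100% = probe without protein; strong numbers were not always called active; many hits fall short of the cut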
# HIV Env fusion – HIV envelope-mediated fusion inhibition. HeLa-JRFL Env/CEM21 cell fusion, luciferase. 360,000 tested, 1.1% active. inhibition, % at 12.3 µM;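 active = mean replicate inhibition score of at least 50 and every replicate individually at or above 50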;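 note: 0% = plate neutral controls and 100% = maraviroc near 300 nM; one replicate is shown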
# PABP FP inh – blocks human PABP binding to poly(A) RNA; fluorescence polarization; inhibition, % at 35 µM; 290,000 tested, 1% active; AID 2014;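 active = 50% or more with normal probe brightness, or confirmed in later tests; about a fifth of its hits are not listed in these tables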;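 note: calls also rest on retests at 20 µM and on dose response follow-up; controls were probe without protein and protein plus probe with vehicle; some compounds called inactive have numbers as strong as hits; many hits fall short of the cut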
# Target sequence (P11940 whole entry, looked up): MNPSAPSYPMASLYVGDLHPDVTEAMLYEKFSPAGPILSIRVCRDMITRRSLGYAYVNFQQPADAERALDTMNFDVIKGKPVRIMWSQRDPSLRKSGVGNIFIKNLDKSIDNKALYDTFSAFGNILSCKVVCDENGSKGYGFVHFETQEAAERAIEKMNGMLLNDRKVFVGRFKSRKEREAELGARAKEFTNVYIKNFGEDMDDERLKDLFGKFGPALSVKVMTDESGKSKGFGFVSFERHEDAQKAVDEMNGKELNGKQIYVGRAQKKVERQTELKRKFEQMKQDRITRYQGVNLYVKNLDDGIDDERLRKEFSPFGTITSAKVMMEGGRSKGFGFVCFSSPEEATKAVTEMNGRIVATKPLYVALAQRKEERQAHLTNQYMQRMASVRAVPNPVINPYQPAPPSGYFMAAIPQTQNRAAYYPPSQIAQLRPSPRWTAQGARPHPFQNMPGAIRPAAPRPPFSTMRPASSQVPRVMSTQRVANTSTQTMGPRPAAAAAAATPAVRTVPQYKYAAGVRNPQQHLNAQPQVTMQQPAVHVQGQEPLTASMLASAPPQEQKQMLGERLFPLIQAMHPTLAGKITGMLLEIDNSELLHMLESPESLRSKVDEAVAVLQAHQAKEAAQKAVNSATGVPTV
# MT1-MMP act inh – MT1-MMP (human) activation inhibition | P50281 | HT1080 RFP-PRO-GFP cells, GFP/RFP ratio fluorescence, overnight; percent of plate control window, DMSO zero | GFP/RFP ratio change, % at 20 µM | 360,000 tested, 0.061% active;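 active = GFP/RFP ratio change of at least 30% with cell ATP level not reduced by more than half and red fluorescence within 50% of control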; note: strong numbers were not always called active
#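 Test system: HT1080 cells expressing an RFP-PRO-GFP fluorescent reporter construct / Compound dosing: single-point 20 µM compound, 1% DMSO / Schedule: cells overnight before dosing, compound overnight, 37 °C, 5% CO2 / Evaluation: GFP/RFP fluorescence ratio / Control set: DMSO and RFP-L50D-GFP cell wells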
# eIF4H inh retest – further read-out of eIF4H inh, marked with its call; inhibition, %; compound at 20 µM; confirmation average;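 mean of two retest wells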
# PABP FP inh retest – further read-out of PABP FP inh, marked with its call; inhibition, %; compound at 20 µM; confirmation repeats;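 mean of two retest wells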
# MT1-MMP act inh RFP – second read-out of MT1-MMP act inh, no call of its own (marks repeat the call); RFP signal change, %; measured here: RFP expression control read;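 0 = vehicle wells; hits needed this value within 50% of zero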
# The depositor's hits bear a star; i = inactive; . = no result given; + = active, no number; & = joins results of further samples.
SMILES,CSC inhib,Rce1 inhib,Yeast UUG start,eIF4H inh,HIV Env fusion,PABP FP inh,MT1-MMP act inh,MT1-MMP act inh RFP,others
CN(Cc1ccco1)C(=O)c1ccc(N2CCCC2=O)cc1,-18,i,-10,-3,-57,5,-12,-6,
O=C(OCc1nc2ccccc2[nH]1)C1CCCCC1,4,i,.,-13,-18,-15,0,2,
O=C(/C=C/c1cccc(Cl)c1)NCCN1CCOCC1,1,i,.,-5,0,-2,4,9,
CCOC(=O)C1=CCN(S(=O)(=O)c2ccc(C)cc2)C1c1cccs1 (centres undefined),.,.,25,.,36,.,-4,-4,
Fc1ccc(-c2nc3cnccn3c2NC2CCCC2)cc1,-2,i,.,9,13,7,1,3,
CCN(CC)S(=O)(=O)c1cccc(NC(=O)CNC2CCCCCC2)c1,-16,i,-6,0,2,-2,-1,-7,
Nc1cc(S(=O)(=O)Nc2ccccc2Cl)ccc1N1CCCC1,-17,i,.,1,21,10,1,-9,
O=C1c2ccccc2NC(c2ccccn2)N1c1ccccc1F (centres undefined),-6,i,-20,-2,-12,8,-3,-3,
Cc1cccc(OCC(=O)Nc2ccc(N3CCN(S(C)(=O)=O)CC3)cc2)c1C,.,i,-9,-8,31,-1,-1,-3,
CSc1ccc(C#N)cc1NC(=O)c1cccc(Cl)c1,-21,i,2,-7,.,-6,0,1,

# 3 entries out of the list, arranged by SMILES length, ascending:
SMILES,CSC inhib,Rce1 inhib,Yeast UUG start,eIF4H inh,HIV Env fusion,PABP FP inh,MT1-MMP act inh,MT1-MMP act inh RFP,others
CSc1ccc(C#N)cc1NC(=O)c1cccc(Cl)c1,-21,i,2,-7,.,-6,0,1,
Nc1cc(S(=O)(=O)Nc2ccccc2Cl)ccc1N1CCCC1,-17,i,.,1,21,10,1,-9,
CCN(CC)S(=O)(=O)c1cccc(NC(=O)CNC2CCCCCC2)c1,-16,i,-6,0,2,-2,-1,-7,

# (cont.)
SMILES,CSC inhib,Rce1 inhib,Yeast UUG start,eIF4H inh,HIV Env fusion,PABP FP inh,MT1-MMP act inh,MT1-MMP act inh RFP,others
CCCCn1c(N)c(N(CCOC)C(=O)CSCc2ccc(Cl)c(Cl)c2)c(=O)[nH]c1=O,-5,i,15,.,.,.,-1,-2,
COc1cc2c(cc1CNC[C@H]1O[C@@H](n3cc(C)c(=O)[nH]c3=O)C[C@@H]1O)OCO2,.,.,-8,.,-6,.,3,5,
COc1ccc(/C(C)=N/NC(=O)c2ccncc2)cc1[N+](=O)[O-],-10,i,-17,7,-4,26,-1,5,
O=C(CN(CC1CCCO1)S(=O)(=O)c1ccc(S(=O)(=O)NCC2CCCO2)cc1)Nc1ccccc1 (centres undefined),4,i,0,2,.,-4,0,-3,
O=C(CSc1nnc(CCCO)n1-c1ccccc1)Nc1nccs1,-10,i,12,1,.,0,-3,-2,
O=C(CNC(=O)C1CCCCC1)NC1=NCCS1,4,i,-21,-7,-11,-2,1,3,
COc1ccccc1Cn1c(=O)c2ccccc2n2c(SCc3csc(C)n3)nnc12,-6,i,.,-6,.,-1,4,-2,
Cc1ccc(CSCCNC(=O)CN2C(=O)c3ccccc3S2(=O)=O)cc1,2,i,.,1,.,5,7,-1,
O=C(NNS(=O)(=O)c1ccccc1F)c1cc(-c2ccccc2)n[nH]1,-26,i,12,11,8,1,-4,-1,
N#Cc1cccnc1N1CCN(C(=O)c2cccs2)CC1,0,i,-8,-1,8,7,7,7,
Cc1cc(C(=O)N/N=C/c2ccc3c(c2)OCO3)c2ccccc2n1,35,i,.,6,-30,3,-5,-14,
COc1ccccc1N1CC(C(=O)Nc2nnc(SCC(=O)N3CCOCC3)s2)CC1=O (centres undefined),1,i,-3,-11,.,-7,-2,1,
Cc1ncsc1CCOC(=O)c1cccc([N+](=O)[O-])c1,5&-27,i,-2,-1,-21&-144,14,4&2,1&4,
Cc1cc(CNC(=O)COc2ccc(C)c(C)c2)c2ccccc2n1,6,i,0,1,30,-15,-2,-6,
COc1cc2c(cc1OC)C(CCc1ccccc1)=NCC2,11,+,-2,1,13,3,-6,-2,
COc1ccccc1Oc1ccc2c(c1)C(=O)N(CC1CCCO1)C2=O (centres undefined),-17,i,2,-4,-4,28,-6,-2,
O=C(NCCS(=O)(=O)NCCc1ccccc1)c1ccc2c(c1)OCO2,-18,i,-16,.,-72,.,2,3,
CC(C)Cc1n[nH]c(=O)[nH]1,6,i,-9,-7,.,14,1,2,
CSc1nc(N(C)NC(=O)c2ccc(F)cc2)c2ccccc2n1,54,i,.,-12,.,4,1,-13,
COCCOc1ccc(C(F)(F)F)cc1NC(=O)CN1C(=O)NC2(CCc3ccccc32)C1=O (centres undefined),1,i,7,.,8,.,0,-1,
CC(C)CN(CC(C)C)C1=N/C(=C\c2ccco2)C(=O)N1c1ccccc1,4,i,-5,69,.,53*,-16,7,eIF4H inh retest=37;PABP FP inh retest=50*
O=C(Nc1ccc(Cl)cc1C(F)(F)F)c1ccccc1Cl,-1,i,.,-7,13,-11,3,1,
O=c1cc(-c2ccccc2)nc2nc(-c3ccccc3)[nH]n12,1,i,-12,4,.,-7,1,1,
Cc1ccc(Cc2c(-c3ccc(F)cc3)nc3ccc(Br)cn23)cc1,.,.,-20,.,-18,.,0,-4,
Cc1csc(NC(=O)CSc2ccc(-c3ccc(F)cc3)nn2)n1,4,i,.,4,-28,2,11,8,
CCn1c(CNc2ccc(F)cc2)nnc1SCC(=O)Nc1ccc(OC)cc1OC,-17,i,-11,2,.,-6,0,2,
COc1ccc(CCNC(=O)CN(c2ccc(OC)c(OC)c2)S(=O)(=O)c2ccc(C)cc2)cc1,.,i,2,-8,-4,17,3,4,
Cc1ccc(C)c(OCCC(=O)Nc2ccc(S(=O)(=O)N3CCCC3)cc2)c1,.,.,-17,.,-1,.,-1,-4,
Cn1nc(C(F)(F)F)c(C(=O)Nc2ccc(F)cc2F)c1Oc1cccc(Cl)c1,1,i,-29,-7,-26,-2,-4,-1,
COCCN1C(=O)N[C@@H](c2cccc(F)c2)C(C(C)=O)=C1C,2,i,10,.,-5,.,5,2,
CC(C)Cn1c(N)c(C(=O)COC(=O)C2CC(=O)N(Cc3ccccc3Cl)C2)c(=O)n(C)c1=O (centres undefined),9,i,.,11,-3,2,-2,-11,
CCOC(=O)c1ccc(S(=O)(=O)N2CCN(C(=O)C3CSC4(C)CCC(=O)N34)CC2)cc1 (centres undefined),.,.,-10,.,-12,.,-1,0,
O=C(c1ccccc1)c1cnc(-c2ccccc2)s1,-10,i,.,3,-254,0,3,3,
Cc1cc2cc(CNC(=O)c3ccc4c(c3)OCO4)ccc2n1C,5,i,-2,61*,.,64*,75,89,
O=C(Cc1ccccc1F)NCC(=O)Nc1ccccc1Br,-7,i,-12,27,-4,-2,0,2,
Cc1cccc(Nc2nnc(SCC(=O)c3c(N)n(C4CC4)c(=O)[nH]c3=O)s2)c1,20,.,-11,.,-3,.,-2,0,
CCc1nc(N)c(C#N)c(-c2ccc(F)cc2)c1C,-9,i,-1,-6,.,0,11,3,
O=C(COC(=O)C1CCN(c2ccc(C(F)(F)F)cn2)CC1)NCc1ccccc1,3,.,-17,.,5,.,2,2,
Cn1cc(-c2nc3ccccc3[nH]2)c2ccccc21,-2,i,-18,-4,-119,0,7,-1,
O=C(NCCCCNC(=O)c1ccccc1Br)c1ccccc1Br,-6,i,-6,.,-2,.,19,2,
O=C(CCCSc1nc(-c2ccco2)cc(C(F)(F)F)n1)NCc1cccs1,-1,.,12,-1,.,-5,-4,-6,
O=C(CNC(=O)c1ccco1)Nc1ccc(F)c(Cl)c1,.,i,-11,-6,-89,0,2,1,
Cn1nc(C(F)(F)F)c(C(=O)Nc2ccc(C(F)(F)F)cc2)c1Cl,-1,i,7,-3,-8,-10,6,-6,
CCOc1ccccc1Nc1nc(-c2sc(NC(=O)c3ccc([N+](=O)[O-])cc3)nc2C)cs1,1,i,.,-14,.,1,.,.,
COc1ccccc1NC(=O)Nc1ccc(Br)cn1,3,i,-18,-4,.,-1,-2,-1,
CCC(CC)C(=O)Nc1nnc(SCC(=O)N2CCN(c3ccccc3OC)CC2)s1,-9,i,.,4,-39,-8,3,0,
CCNc1nc(Oc2ccc(=O)n(C)n2)nc(N2CCOCC2)n1,2,i,-11,-5,.,0,8,9,
Cc1cc(=O)[nH]c(-c2ccccc2OC(F)(F)F)n1,0,i,-9,-2,5,2,-1,3,
COc1cc(C(=O)Nc2cccc(-n3cnnn3)c2)cc(OC)c1OC,-6,i,-24,-6,6,-5,.,.,
O=C(NCc1ccncc1)C(=O)N/N=C/c1cccnc1,-4,i,.,-2,-11,2,1,2,
# (cont.)
SMILES,CSC inhib,Rce1 inhib,Yeast UUG start,eIF4H inh,HIV Env fusion,PABP FP inh,MT1-MMP act inh,MT1-MMP act inh RFP,others
Cc1nn(Cc2ccccc2)c(C)c1C(=O)NCC(c1cccs1)N1CCOCC1 (centres undefined),-9,i,.,.,-3,.,2,-2,
CCC(=O)Nc1ccc(-c2nc(-c3ccccc3)n(CC(=O)N3CCCCC3)n2)cc1,.,i,-9,-7,.,1,3,2,
O=C(CN(C(=O)CCC(=O)Nc1nccs1)c1ccc(F)cc1)NCCc1ccccc1,-2,i,1,-2,9,-6,-2,0,
CCOCCCNC(=O)C(NC(=O)CNC(=O)c1ccccc1)c1ccc(OC)cc1 (centres undefined),-12,i,-2,-3,4,-3,-1,1,
CCCCn1c(SCC(=O)Nc2cccc(OC)c2)nc2ccc(N3CCOCC3)cc2c1=O,39,i,.,-12,-10,30,0,-3,
Nc1nc(NC2CCCC2)cc(=O)[nH]1,.,.,-25,.,-11,.,-1,-3,
Cc1cc(-c2nnco2)c(C)n1-c1ccccc1,-4,i,-2,-2,.,1,3,1,

# In the list so far, nine contain a Cl atom:
SMILES,CSC inhib,Rce1 inhib,Yeast UUG start,eIF4H inh,HIV Env fusion,PABP FP inh,MT1-MMP act inh,MT1-MMP act inh RFP,others
O=C(/C=C/c1cccc(Cl)c1)NCCN1CCOCC1,1,i,.,-5,0,-2,4,9,
Nc1cc(S(=O)(=O)Nc2ccccc2Cl)ccc1N1CCCC1,-17,i,.,1,21,10,1,-9,
CSc1ccc(C#N)cc1NC(=O)c1cccc(Cl)c1,-21,i,2,-7,.,-6,0,1,
CCCCn1c(N)c(N(CCOC)C(=O)CSCc2ccc(Cl)c(Cl)c2)c(=O)[nH]c1=O,-5,i,15,.,.,.,-1,-2,
O=C(Nc1ccc(Cl)cc1C(F)(F)F)c1ccccc1Cl,-1,i,.,-7,13,-11,3,1,
Cn1nc(C(F)(F)F)c(C(=O)Nc2ccc(F)cc2F)c1Oc1cccc(Cl)c1,1,i,-29,-7,-26,-2,-4,-1,
CC(C)Cn1c(N)c(C(=O)COC(=O)C2CC(=O)N(Cc3ccccc3Cl)C2)c(=O)n(C)c1=O (centres undefined),9,i,.,11,-3,2,-2,-11,
O=C(CNC(=O)c1ccco1)Nc1ccc(F)c(Cl)c1,.,i,-11,-6,-89,0,2,1,
Cn1nc(C(F)(F)F)c(C(=O)Nc2ccc(C(F)(F)F)cc2)c1Cl,-1,i,7,-3,-8,-10,6,-6,

# Screens as filed in PubChem.
